# Source: PubChem BioAssay (Broad Institute)
# MITF inhib – inhibitors of MITF | TRPM1 promoter luciferase, luminescence, 24 h | inhibition, % (concentration not given with the values) | 37,000 tested, 0.28% active;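 active = most replicates at 85% or more, or half of them and the mean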;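 also: human melanocyte line stably carrying TRPM1 promoter luciferase reporter; 0% = vehicle wells and 100% = a positive control; the first replicate is given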
# YB-1 expression – YB-1 expression inhibition; U2OS, qRT-PCR YB-1 vs CDIP delta delta Cp, 16 h; stronger effect = higher value; zero = DMSO, each unit about twofold; delta delta Cp (YB-1 minus CDIP) (test concentration not listed); 30,000 tested, 0.37% active;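 active = delta delta Cp rounded down to an integer at or above 3, about 3 SD of DMSO wells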;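 also: higher means less YB-1 transcript or more CDIP transcript relative to DMSO; stock transfer was 100 nL into about 100 µL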
# * marks the source's active call; other numbers are inactive results; . = not tested or not shown. This is a subset. The share of hits here may be higher or lower than overall.
SMILES,MITF inhib,YB-1 expression
CN(C)CCNc1nc2c(c(=O)n(C)c(=O)n2C)n1Cc1ccccc1Cl,-20,.
CCn1cc(CN(C)C(=S)Nc2cccc(C(C)=O)c2)c(C)n1,-5,.
COc1ccc(CC(=O)Nc2cc(C)ccc2O)cc1OC,13,.
COc1ccccc1CNc1nc2nc(C)cc(=O)n2[nH]1,-6,.
O=C(CSc1nc2c(c(C(F)(F)F)n1)CCc1ccccc1-2)Nc1c(F)cc(F)cc1Br,-8,.
Cc1cccc(-c2nnc(SCC(=O)Nc3c(C)cc(I)cc3C)o2)c1,5,.
Cc1ccc(S(=O)(=O)N(CC(=O)Nc2ccccc2C)C2CCCCC2)cc1,4,.
Cc1ccc2nc(-c3ccccn3)cc(C(=O)Nc3ccc(S(=O)(=O)N4CCOCC4)cc3)c2c1,-10,.
CCOC(=O)c1c(NC(=O)CN2C(=O)COc3ccc(Cl)cc32)sc2c1CCCC2,26,.
O=C(Cn1cnc2ccccc2c1=O)Nc1ccc(Br)cc1F,11,.
COC(=O)c1c(NC(=S)Nc2c(C)nn(Cc3c(F)c(F)c(F)c(F)c3F)c2C)sc(C)c1-c1ccccc1,-2,.
Cc1cccc(-n2c(SCC(=O)O)nc3sc4c(c3c2=O)CCCC4)c1,-21,.
CN(c1ccc(C(=O)NCc2ccccn2)cc1)S(C)(=O)=O,-16,.
CCOCC(O)CS(=O)(=O)c1ccccn1 (stereo not given),-4,.
O=C(CSc1nc2ccccc2c(=O)n1-c1ccccc1)Nc1ccc(F)c(Cl)c1,30,.
O=C(O)c1ccc(NCCCO)c([N+](=O)[O-])c1,-27,.
c1ccc(COc2ccc(Oc3nc(N4CCCCC4)nc(N4CCOCC4)n3)nn2)cc1,-17,.
O=C(CS(=O)(=O)c1ccccc1)Nc1ccccc1O,-4,.
O=C(NCc1cccnc1)c1cc(-c2ccccn2)nc2c(Cl)cccc12,16,.
COC(=O)CN(c1cccc(C)c1)S(=O)(=O)c1ccc(Cl)c(Cl)c1,-8,.
CC1(C)CC(=O)C2=C(C1)N(Cc1cccnc1)C(=O)C2(NC(=O)c1ccc(Cl)cc1Cl)C(F)(F)F (stereo not given),-4,.
O=C(NCc1cc2ccccc2[nH]1)c1cc(-c2ccccn2)nc2ccc(Br)cc12,20,.
O=C(CSc1ncnc2sc3c(c12)CCCCC3)Nc1ccc2c(c1)OCCO2,-41,.
COc1ccc(-n2c(C)nnc2SCC(=O)Nc2ccc(F)c(Cl)c2)cc1,-10,.
O=C(CSc1nnc(-c2cccnc2)n1-c1ccccc1)Nc1cc(C(F)(F)F)ccc1Cl,53,.
Cn1cccc1CNCCCN1CCOCC1,-3,.
CN(CC(=O)Nc1ccccc1[N+](=O)[O-])S(=O)(=O)c1ccc(Br)cc1,-3,.
COc1ccc(C(C)C)cc1S(=O)(=O)n1cnc2cc(C)c(C)cc21,41,.
COc1ccc(OC)c(NC(=O)COc2cc(C)c(Br)cc2C)c1,-15,.
Cc1cccc(NC(=O)C(Cc2ccccc2)N2C(=O)c3cc(Cl)c(Cl)cc3C2=O)c1 (stereo not given),5,.
CN(C(=O)CSc1nnc(-c2ccc([N+](=O)[O-])cc2)n1C)c1ccccc1,2,.
COC(=O)CCN(C(=O)c1ccc(OC(C)=O)cc1)c1ccccn1,-12,.
CSc1cccc(NC(=O)CSc2nnc(-c3cccc(C)c3)n2C)c1,4,.
Cc1ccc2nc(-c3ccc(NC(=O)COc4ccc([N+](=O)[O-])cc4)cc3)sc2c1,-87,.
O=C(CSc1nc2sc3c(c2c(=O)[nH]1)CCCC3)Nc1ccc(Cl)cc1,20,.
Cc1ccc(C)c(NC(=O)C(Cc2ccccc2)N2C(=O)c3ccccc3C2=O)c1 (stereo not given),1,.
COc1ccccc1-n1c(SCC(=O)N(c2ccccc2)c2ccccc2)nc2ccccc2c1=O,-4,.
Cc1cc(C)n2nc(SCC(=O)c3cccs3)nc2n1,-8,.
COC(=O)CN(c1cc([N+](=O)[O-])ccc1OC)S(C)(=O)=O,-7,.
CCOc1ccc(NC(=O)CC2NCCNC2=O)cc1 (stereo not given),-24,.

# Exported as tab-separated lines: entries from further up
smiles	MITF inhib	YB-1 expression
O=C(CSc1nnc(-c2cccnc2)n1-c1ccccc1)Nc1cc(C(F)(F)F)ccc1Cl	53	.
Cn1cccc1CNCCCN1CCOCC1	-3	.

# Following part:
SMILES,MITF inhib,YB-1 expression
Cc1ccc(NC(=O)COc2ccc(C(=O)Nc3ccc(F)cc3)cc2)cc1,-3,.
O=C(CSc1nnnn1-c1ccccc1)Nc1cc(Cl)ccc1O,13,.
COc1cc2c(cc1NC(=O)c1cc(-c3cccnc3)nc3ccc(C)cc13)oc1ccccc12,-25,.
Cc1ccc(-c2nc3cc(NC(=O)COc4ccc([N+](=O)[O-])cc4)ccc3o2)cc1C,-41,.
CN(CC(=O)Nc1ccc(F)c(Cl)c1)S(=O)(=O)c1ccc(F)cc1,-8,.
COc1ccc(-c2cc(C(F)F)n3ncc(C(=O)N(C)Cc4cnn(C)c4C)c3n2)cc1,15,.
COc1ccc(-c2cc(C(F)(F)F)nc(SCC(=O)Nc3ccc(Cl)cc3Cl)n2)cc1,19,.
Cc1nc2n(CC(=O)c3cccs3)c3ccccc3n2n1,4,.
COC(=O)c1c(NC(=S)NCc2ccc(S(N)(=O)=O)cc2)sc2c1CCC(C)C2 (stereo not given),-60,.
O=C(COc1ccc(Br)cc1CO)Nc1ccccc1F,-89,.
Cc1ccc(OCC(=O)NC(=S)Nc2cccc(NC(=O)c3ccccc3Cl)c2)cc1,-1,.
O=C(CSc1nc2ccccc2s1)Nc1ccccc1C(=O)c1ccccc1,23,.
C[C@H](CO)N1C[C@H](C)[C@H](CN(C)C(=O)Nc2cccc(F)c2)OCc2cn(nn2)CCCC1=O,.,0.055
C[C@@H]1CN([C@@H](C)CO)C(=O)CCCn2nncc2CO[C@@H]1CN(C)Cc1cccc(C(F)(F)F)c1,.,-0.15
C[C@@H]1CN([C@H](C)CO)C(=O)CCCn2nncc2CO[C@H]1CN(C)Cc1ccccc1C(F)(F)F,.,-0.28
C[C@H](CO)N1C[C@H](C)[C@H](CN(C)S(=O)(=O)c2cccc(F)c2)Oc2ncc(C#Cc3ccc(C(F)(F)F)cc3)cc2C1=O,.,0.11
O=C(O)CCCCCCC(=O)N/N=C/c1ccc(F)cc1,.,-0.26
C[C@@H]1CN([C@H](C)CO)C(=O)CCCn2cc(nn2)CO[C@H]1CN(C)S(=O)(=O)c1cccc(F)c1,.,0.33
O=C(NO)c1cccc(C(=O)N/N=C/c2cccc3ccccc23)c1,.,-0.052
COc1cc2c(cc1OC)CN(C(=O)[C@@H]1[C@H]3C(=O)O[C@H](c4ccccc4)[C@H](c4ccccc4)N3[C@H](c3ccc(OCCO)cc3)[C@@]13C(=O)Nc1ccc(C#CC4=CCCCC4)cc13)CC2,.,-0.072

# 5 entries already listed, ordered by SMILES length, lowest first.
SMILES,MITF inhib,YB-1 expression
O=C(COc1ccc(Br)cc1CO)Nc1ccccc1F,-89,.
O=C(O)CCCCCCC(=O)N/N=C/c1ccc(F)cc1,.,-0.26
Cc1ccc(-c2nc3cc(NC(=O)COc4ccc([N+](=O)[O-])cc4)ccc3o2)cc1C,-41,.
C[C@H](CO)N1C[C@H](C)[C@H](CN(C)C(=O)Nc2cccc(F)c2)OCc2cn(nn2)CCCC1=O,.,0.055
C[C@@H]1CN([C@@H](C)CO)C(=O)CCCn2nncc2CO[C@@H]1CN(C)Cc1cccc(C(F)(F)F)c1,.,-0.15

# Next part.
SMILES,MITF inhib,YB-1 expression
C=CC[C@]1(C(=O)OC)COC(c2ccc(OCCCO)cc2)=N1,.,-0.35
C[C@H]1CN([C@@H](C)CO)C(=O)CCCn2nncc2CO[C@H]1CN(C)S(=O)(=O)c1ccc2ccccc2c1,.,-0.17
C[C@H](CO)N1C[C@H](C)[C@H](CN(C)C(=O)Nc2cccc(C(F)(F)F)c2)OCc2cnnn2CCCC1=O,.,0.35
C[C@@H]1CN([C@@H](C)CO)C(=O)CCCn2cc(nn2)CO[C@H]1CN(C)C(=O)c1ccc(N2CCN(C)CC2)cc1,.,-0.12
COC(=O)CCCCCCC(=O)N/N=C/[C@H](O)[C@H](O)[C@@H](O)[C@@H](O)CO,.,-0.055
C[C@H]1CN([C@@H](C)CO)C(=O)CCCn2nncc2CO[C@H]1CN(C)C(=O)C1CC1,.,-0.1
O=C1O[C@H](c2ccccc2)[C@H](c2ccccc2)N2[C@H]1[C@@H](C(=O)N1CCCCCCC1)[C@]1(C(=O)Nc3ccc(C#CC4(O)CCCCCC4)cc31)[C@H]2c1ccc(OCCO)cc1,.,-0.2
C[C@H](CO)N1C[C@H](C)[C@@H](CN(C)C(=O)Nc2ccc(-c3cccs3)cc2)OCc2cn(nn2)CCCC1=O,.,0.11
C[C@@H]1CN([C@@H](C)CO)C(=O)CCCn2nncc2CO[C@H]1CN(C)C(=O)Nc1ccc(F)cc1,.,-0.041
Cc1ccc(F)cc1S(=O)(=O)N1CCN(Cc2cccc(OCCO)c2)CC1,.,-0.7
COC(=O)N(C)C[C@@H]1OCc2cnnn2CCCC(=O)N([C@@H](C)CO)C[C@H]1C,.,0.41
C[C@@H]1CN([C@@H](C)CO)C(=O)CCCn2cc(nn2)CO[C@H]1CN(C)Cc1ccc(Oc2ccccc2)cc1,.,0.081
CC(C)NC(=O)[C@@]1(C)c2ccccc2C(=O)N(Cc2ccc(OC(F)(F)F)cc2)[C@H]1c1ccc(CO)cc1,.,0.23
CCCCN(CCCC)c1ccc(/C=N/NC(=O)c2ccccn2)cc1,.,-0.13
C[C@@H]1CN([C@H](C)CO)C(=O)CCCn2nncc2CO[C@@H]1CN(C)C(=O)c1ccncc1,.,0.11
COc1ccccc1S(=O)(=O)N(C)C[C@@H]1OCc2cn(nn2)CCCC(=O)N([C@H](C)CO)C[C@@H]1C,.,-0.13
COc1ccccc1NC(=O)N(C)C[C@@H]1OCc2cnnn2CCCC(=O)N([C@H](C)CO)C[C@H]1C,.,-0.3
C[C@H](CO)N1C[C@H](C)[C@H](CN(C)Cc2ccc3c(c2)OCCO3)OCc2cn(nn2)CCCC1=O,.,-0.069
C[C@@H]1CN([C@H](C)CO)C(=O)CCCn2cc(nn2)CO[C@@H]1CN(C)Cc1ccccc1,.,-0.16
COc1ccc(/C=N/NC(=O)c2cccc(C(=O)NO)c2)cc1O,.,0.25

# The final 2 entries of the part above are carried over, then new ones follow:
SMILES,MITF inhib,YB-1 expression
C[C@@H]1CN([C@H](C)CO)C(=O)CCCn2cc(nn2)CO[C@@H]1CN(C)Cc1ccccc1,.,-0.16
COc1ccc(/C=N/NC(=O)c2cccc(C(=O)NO)c2)cc1O,.,0.25
Cc1ccccc1CN(C)C[C@@H]1OCc2cn(nn2)CCCC(=O)N([C@H](C)CO)C[C@H]1C,.,-0.88
O=C1N(CCS(=O)(=O)c2ccccc2)Cc2ccccc2C[C@]12N=C(c1ccc(OCCCO)cc1)O[C@@H]2c1ccccc1,.,0.42
C[C@H](CO)N1C[C@H](C)[C@H](CN(C)C(=O)Nc2ccccc2)Oc2ncc(C#Cc3ccc(C(F)(F)F)cc3)cc2C1=O,.,-0.12
C[C@H](CO)N1C[C@H](C)[C@H](CN(C)C(=O)Nc2ccccc2)Oc2ncc(C#Cc3ccc(F)cc3)cc2C1=O,.,-0.51
O=C(NO)c1cccc(C(=O)N/N=C/c2cc3c(cc2Br)OCO3)c1,.,-0.087

# Retrieved by structure from above (2):
SMILES,MITF inhib,YB-1 expression
C[C@@H]1CN([C@H](C)CO)C(=O)CCCn2nncc2CO[C@H]1CN(C)Cc1ccccc1C(F)(F)F,.,-0.28
Cc1ccccc1CN(C)C[C@@H]1OCc2cn(nn2)CCCC(=O)N([C@H](C)CO)C[C@H]1C,.,-0.88
